# Compound activity deposited in PubChem BioAssay by Broad Institute.
# Vaccinia inh: blocks a specific stage of Vaccinia orthopoxvirus infection, primary screen, cell-based, single point. AID 1053133, 2014. Vaccinia-infected cells, mCherry/Venus stage reporter fluorescence; stronger effect = lower value; some inactives read as strong as hits. 89,000 compounds, 0.01% hits. activity change (mCherry), % (test concentration not listed);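 active = mCherry past -33% and 40 or more points under the early reporter, replicates agreeing; inconclusive = past -33% without that gap or agreement; tested in A549 cells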;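 note: scaled between vehicle wells and reference inhibitor wells; 23 nL library stock went into each well; one replicate is shown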
# Vaccinia inh Venus: second read-out of Vaccinia inh, no call of its own (marks repeat the call); activity change (Venus), %; measured here: Venus reporter, other viral stage;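 negative = less Venus signal; first of two replicates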
# Active calls of the source: *; u = inconclusive; x = not tested or not shown; & = joins results of further samples. The list is partial. The share of hits here may be higher or lower than overall.
# Sample of the layout, 4 compounds:
# Screens in order – Vaccinia inh	Vaccinia inh Venus
C[C@@H]1CCCCO[C@@H](CN(C)S(=O)(=O)c2ccc(Cl)cc2)[C@H](C)CN([C@@H](C)CO)C(=O)c2cc(NC(=O)Nc3ccc(F)cc3)ccc2O1
 : -23	-12
COc1ccc(C#Cc2cnc3c(c2)C(=O)N([C@@H](C)CO)C[C@H](C)[C@@H](CN(C)CC2CCOCC2)O3)cc1
 : -14	0
COc1ccc(S(=O)(=O)N(C)C[C@@H]2Oc3cc(C#CC4CC4)ccc3S(=O)(=O)N([C@@H](C)CO)C[C@@H]2C)cc1
 : u	x
C[C@@H]1CN([C@H](C)CO)C(=O)Cc2cc(NS(=O)(=O)c3ccccc3)ccc2O[C@@H]1CN(C)S(C)(=O)=O
 : 14	10

# The listing, from the first entry:
# Screens in order – Vaccinia inh	Vaccinia inh Venus
C[C@@H]1CCCCO[C@@H](CN(C)S(=O)(=O)c2ccc(Cl)cc2)[C@H](C)CN([C@@H](C)CO)C(=O)c2cc(NC(=O)Nc3ccc(F)cc3)ccc2O1
 : -23	-12
COc1ccc(C#Cc2cnc3c(c2)C(=O)N([C@@H](C)CO)C[C@H](C)[C@@H](CN(C)CC2CCOCC2)O3)cc1
 : -14	0
COc1ccc(S(=O)(=O)N(C)C[C@@H]2Oc3cc(C#CC4CC4)ccc3S(=O)(=O)N([C@@H](C)CO)C[C@@H]2C)cc1
 : u	x
C[C@@H]1CN([C@H](C)CO)C(=O)Cc2cc(NS(=O)(=O)c3ccccc3)ccc2O[C@@H]1CN(C)S(C)(=O)=O
 : 14	10
C[C@H](CO)N1C[C@H](C)[C@@H](CN(C)CC2CC2)OCCCC[C@H](C)Oc2ccc(NC(=O)Nc3ccc4c(c3)OCO4)cc2C1=O
 : 7	4
O=C(C[C@H]1C=C[C@@H](NC(=O)Nc2cc(F)ccc2F)[C@@H](CO)O1)NCc1ccncn1
 : -6	-10
C[C@@H]1CN([C@@H](C)CO)C(=O)c2cccc(NC(=O)Nc3ccccc3)c2O[C@@H]1CN(C)Cc1ccc(Cl)c(Cl)c1
 : u	x
COC(=O)[C@H]1[C@H](CO)[C@H]2Cn3c(ccc(C4=CCCC4)c3=O)[C@H]2N1C(=O)C1CC1
 : 16	9
C[C@@H]1CCCCO[C@@H](CN(C)Cc2ccc(Cl)c(Cl)c2)[C@@H](C)CN([C@H](C)CO)C(=O)c2cc(NS(C)(=O)=O)ccc2O1
 : -22	-18
COc1ccccc1-c1ccc2n(c1=O)C[C@@H]1[C@@H](CO)[C@H](C(=O)NCc3ccccc3Cl)N[C@H]21
 : -5	2
CC=Cc1ccc2n(c1=O)C[C@H]1[C@H](CO)[C@@H](C(=O)NCC3CC3)N(Cc3ccccc3)[C@@H]21 (mixture of isomers)
 : -12	11
CCC(=O)N1CC2(C1)[C@H](c1ccccc1)[C@H](CO)N2CC1CCCC1
 : 3	2
O=C(Nc1ccc2c(c1)[C@@H]1C[C@@H](CC(=O)N3CCOCC3)O[C@H](CO)[C@@H]1O2)C1CCOCC1
 : 12	9
Cc1ccc(S(=O)(=O)Nc2ccc3c(c2)C(=O)N([C@@H](C)CO)C[C@@H](C)[C@@H](CN(C)S(=O)(=O)c2ccccc2)O3)cc1
 : -8	-4
Cc1noc(C)c1NC(=O)N(C)C[C@H]1Oc2ccc(NC(=O)CCCN(C)C)cc2CC(=O)N([C@@H](C)CO)C[C@@H]1C
 : 4	9

# A draw from above in order of formula weight, lowest first.
# Screens in order – Vaccinia inh	Vaccinia inh Venus
CCC(=O)N1CC2(C1)[C@H](c1ccccc1)[C@H](CO)N2CC1CCCC1
 : 3	2
COC(=O)[C@H]1[C@H](CO)[C@H]2Cn3c(ccc(C4=CCCC4)c3=O)[C@H]2N1C(=O)C1CC1
 : 16	9
COc1ccc(C#Cc2cnc3c(c2)C(=O)N([C@@H](C)CO)C[C@H](C)[C@@H](CN(C)CC2CCOCC2)O3)cc1
 : -14	0

# Continued.
# Screens in order – Vaccinia inh	Vaccinia inh Venus
CCCC(=O)Nc1ccc2c(c1)C(=O)N(C)C[C@H](OC)[C@@H](C)CN(C(=O)c1cccnc1)[C@H](C)CO2
 : 10	13
C[C@@H]1CN([C@H](C)CO)S(=O)(=O)c2ccc(C3=CCCC3)cc2O[C@H]1CN(C)C(=O)c1ccccc1
 : 7	8
O=C(N[C@H]1CC[C@@H](CCNS(=O)(=O)c2ccc(F)cc2)O[C@H]1CO)C1CCOCC1
 : -6	-7
CNC[C@H]1Oc2cc(C#Cc3ccc(OC)cc3)ccc2S(=O)(=O)N([C@@H](C)CO)C[C@@H]1C
 : -16	-7
CC(C)(C)[C@H]1C=C(C(=O)Nc2ccccc2)O[C@@H](OCc2ccc(CO)cc2)C1
 : 8	0
CO[C@H]1CN(C)C(=O)c2ccc(NC(=O)CC(F)(F)F)cc2OC[C@@H](C)N(C(=O)C2CC2)C[C@@H]1C
 : 15	7
C[C@H](CO)N1C[C@H](C)[C@H](CN(C)Cc2ccncc2)Oc2ccc(NC(=O)c3ccncc3)cc2CC1=O
 : 11	5
C[C@@H]1CN([C@H](C)CO)C(=O)c2cc(C3=CCCCC3)cnc2O[C@@H]1CN(C)C(=O)c1ccccc1
 : -2	2
C[C@H](CO)N1C[C@H](C)[C@H](CN(C)C(=O)Nc2ccc(C(F)(F)F)cc2)Oc2ccc(NC(=O)Cn3cnnn3)cc2C1=O
 : 11	12
C[C@@H]1CN([C@H](C)CO)C(=O)c2cc(NC(=O)Cc3ccccc3)ccc2O[C@@H]1CN(C)C(=O)Nc1ccc(C(F)(F)F)cc1
 : -32	-23
C[C@@H]1CN([C@H](C)CO)C(=O)c2cc(Br)cnc2O[C@@H]1CN(C)C(=O)C1CCCCC1
 : 1	11
O=C(CCN1CCCCC1)NCC[C@H]1CC[C@H](NC(=O)C2CCC2)[C@@H](CO)O1
 : 13	14
C[C@@H]1CN([C@H](C)CO)C(=O)c2cc(NC(=O)c3ccncc3)ccc2O[C@@H]1CN(C)Cc1ccc(C(=O)Nc2ccccc2N)cc1
 : -4	-7
CS(=O)(=O)Nc1ccc2c(c1)[C@@H]1C[C@H](CC(=O)NC3CCCC3)O[C@@H](CO)[C@@H]1O2
 : 1	3
CCCN1[C@@H]2c3ccc(-c4ccncc4)c(=O)n3C[C@H]1[C@H](CO)[C@H]2C(=O)NCC1CC1
 : 3	10

# Additional results follow.
Compound | Vaccinia inh | Vaccinia inh Venus
C[C@H](CO)N1C[C@H](C)[C@H](CN(C)C)Oc2ncc(-c3cccc(C(=O)N(C)C)c3)cc2C1=O | 28 | 17
CCCNC(=O)N1C[C@H](O)COC[C@H]2O[C@@H](CC(=O)NCc3ccc(Cl)c(Cl)c3)CC[C@@H]21 | 5 | 3
C[C@@H]1CN([C@@H](C)CO)S(=O)(=O)c2ccc(-c3ccncc3)cc2O[C@H]1CN(C)S(=O)(=O)c1ccccc1F | -4 | -18
CCNC(=O)C[C@H]1CC[C@H]2[C@H](COc3ccc(NC(=O)c4ccc(F)cc4)cc3C(=O)N2C)O1 | -2 | -4
C[C@@H]1CN([C@@H](C)CO)C(=O)c2cc(Br)cnc2O[C@H]1CN(C)C(=O)Cc1cccnc1 | 13 | 8
C[C@@H]1CCCCO[C@@H](CN(C)S(=O)(=O)c2cccs2)[C@H](C)CN([C@@H](C)CO)C(=O)c2cc(NS(=O)(=O)c3ccc(Cl)cc3)ccc2O1 | u | x
COc1ccc2c3c(n(C)c2c1)[C@@H](CO)N(CC1CC1)CC31CCN(C(=O)c2ccc(F)cc2)CC1 | -13 | -4
C[C@H](CO)N1C[C@H](C)[C@@H](CN(C)S(=O)(=O)c2ccc(Cl)cc2)Oc2ccc(NC(=O)Nc3cccc4ccccc34)cc2CC1=O | 5 | 10
C[C@@H]1CN([C@H](C)CO)C(=O)c2cc(NC(=O)Nc3ccc4c(c3)OCO4)ccc2O[C@@H](C)CCCCO[C@@H]1CN(C)S(=O)(=O)c1cccs1 | 16 | 15
COc1ccccc1C#Cc1cnc2c(c1)C(=O)N([C@H](C)CO)C[C@@H](C)[C@@H](CN(C)C(=O)CC1CC1)O2 | -7 | 5
O=C(CC1CC1)N1[C@@H]2CN(S(=O)(=O)c3ccc(F)cc3)c3ccccc3[C@@H]2[C@@H]1CO | 4 | 6
C[C@@H]1CN([C@H](C)CO)C(=O)Cc2cc(NC(=O)c3ccncc3)ccc2O[C@@H]1CN(C)C(=O)Nc1ccccc1 | 17 | 17
Cc1noc(C)c1NC(=O)Nc1cccc2c1O[C@H](CN(C)S(C)(=O)=O)[C@@H](C)CN([C@H](C)CO)C2=O | 40 | 22
C[C@@H]1CCCCO[C@@H](CN(C)Cc2ccccc2)[C@H](C)CN([C@@H](C)CO)C(=O)c2cc(NS(=O)(=O)c3ccc(Cl)cc3)ccc2O1 | u | x
O=C(C[C@H]1C=C[C@H](NC(=O)CCN2CCCCC2)[C@@H](CO)O1)Nc1nccs1 | -12 | -5
C/C=C/c1ccc([C@H]2[C@@H](C#N)N(C(=O)Cc3ccccn3)[C@@H]2CO)cc1 | -3 | 4
O=C(C[C@H]1C[C@@H]2c3cc(NC(=O)C4CCOCC4)ccc3O[C@@H]2[C@@H](CO)O1)NCc1ccc(Cl)cc1 | 4 | 7
O=C(O)C[C@H]1C=C[C@@H](NC(=O)Nc2cc(F)ccc2F)[C@@H](CO)O1 | 8 | 10
CN(C)CC(=O)N[C@H]1CC[C@H](CCNC(=O)C2CCC2)O[C@H]1CO | 2 | 5
C[C@@H]1CN([C@@H](C)CO)C(=O)Cc2cc(NC(=O)C3CC3)ccc2O[C@@H]1CN(C)CC1CCCCC1 | -6 | 2
COC(=O)[C@@H]1[C@@H](CO)[C@@H]2Cn3c(ccc(-c4cccc(C(=O)N(C)C)c4)c3=O)[C@H]1N2CC1CC1 | 16 | 14
CCC(=O)N(C)C[C@@H]1Oc2cc(-c3ccccc3OC)ccc2S(=O)(=O)N([C@H](C)CO)C[C@@H]1C | -1 | -1
O=C(C[C@@H]1CC[C@H]2[C@@H](COC[C@H](O)CN2Cc2cccc(Cl)c2)O1)N1CCCCC1 | -8 | -5
C[C@@H]1CN([C@H](C)CO)C(=O)Cc2cc(NS(=O)(=O)c3cn(C)cn3)ccc2O[C@@H]1CN(C)C(=O)Nc1cccc2ccccc12 | 18 | 17
O=C(N[C@H]1CC[C@@H](CCn2cc(-c3ccccc3F)nn2)O[C@H]1CO)c1ccc2c(c1)OCO2 | -3 | 5
C[C@H](CO)N1C[C@H](C)[C@@H](CN(C)C(=O)Nc2ccc(F)cc2)Oc2ccc(NS(C)(=O)=O)cc2C1=O | 12 | 17
Cc1ccc(S(=O)(=O)NCC[C@@H]2CC[C@@H](NC(=O)c3cccc(F)c3)[C@H](CO)O2)cc1 | -2 | 2
CC(C)NC(=O)Nc1ccc2c(c1)C(=O)N([C@@H](C)CO)C[C@@H](C)[C@@H](CN(C)C(=O)NC(C)C)OCCCC[C@@H](C)O2 | 22 | 14
C[C@H]1CN([C@@H](C)CO)C(=O)Cc2cc(NS(=O)(=O)c3ccc(F)cc3)ccc2O[C@H]1CN(C)C(=O)Nc1ccc(C(F)(F)F)cc1 | -3 | -1
O=C(C[C@@H]1CC[C@@H](NC(=O)c2ccc3c(c2)OCO3)[C@H](CO)O1)NCc1ccc(Cl)cc1 | -4 | -3
COc1cccc(NC(=O)N(C)C[C@@H]2Oc3cc(C#Cc4ccncc4)ccc3S(=O)(=O)N([C@H](C)CO)C[C@H]2C)c1 | -28 | -10
CC(C)NC(=O)N1[C@@H](CO)[C@@H]2c3ccccc3NC[C@@H]21 | 4 | 10
Cc1noc(C)c1S(=O)(=O)N(C)C[C@@H]1Oc2ccc(NC(=O)C3CCCCC3)cc2CC(=O)N([C@@H](C)CO)C[C@H]1C | 10 | -2
CO[C@@H]1CN(C)C(=O)c2ccc(NC(C)=O)cc2OC[C@@H](C)N(CC2CC2)C[C@H]1C | 0 | -7
CN(C)CC(=O)N1[C@@H]2c3ccc(-c4ccc(F)cc4)c(=O)n3C[C@@H]2[C@@H](CO)[C@@H]1C(=O)NC1CCCC1 | 3 | -1
CCCC#Cc1cnc2c(c1)C(=O)N([C@@H](C)CO)C[C@@H](C)[C@H](CN(C)C(=O)Nc1ccccc1OC)O2 | 6 | 1
O=C(N[C@@H]1CC[C@H](CC(=O)N2CCCCC2)O[C@@H]1CO)c1ccc2c(c1)OCO2 | 2 | -8
COc1cccc(C#Cc2cnc3c(c2)C(=O)N([C@@H](C)CO)C[C@H](C)[C@@H](CN(C)C(=O)C2CC2)O3)c1 | 10 | -7
Cc1ccc(-c2cnc3c(c2)C(=O)N([C@@H](C)CO)C[C@@H](C)[C@H](CN(C)Cc2ccccc2C(=O)O)O3)cc1 | 10 | 4
C[C@@H]1CN([C@H](C)CO)C(=O)c2cc(NC(=O)CCC(F)(F)F)ccc2O[C@@H](C)CCCCO[C@H]1CN(C)C(=O)Nc1ccc(F)cc1 | 6 | 4
CO[C@@H]1CN(C)C(=O)c2cc(NC(=O)c3ccno3)ccc2OC[C@H](C)NC[C@H]1C | 14 | 46
C[C@H](CO)N1C[C@H](C)[C@H](CN(C)Cc2ccncc2)Oc2c(NC(=O)c3ccc(-c4nccs4)cc3)cccc2C1=O | 9 | 3
Cc1ccc(S(=O)(=O)N[C@H]2CC[C@H](CC(=O)N3CCC(Cc4ccccc4)CC3)O[C@H]2CO)cc1 | -28 | -23
COc1ccc(S(=O)(=O)N(C)C[C@@H]2OCc3cnnn3CCCC(=O)N([C@@H](C)CO)C[C@H]2C)cc1 | -5&9 | -3&4
CO[C@H]1CN(C)C(=O)c2cc(NC(=O)c3cc(C)on3)ccc2OC[C@H](C)N(C)C[C@@H]1C | 2 | 14
C[C@@H]1CN([C@@H](C)CO)C(=O)c2cc(NC(=O)Nc3ccc(C(F)(F)F)cc3)ccc2O[C@@H](C)CCCCO[C@H]1CN(C)S(=O)(=O)c1cccs1 | 0 | 21
C[C@H](CO)N1C[C@H](C)[C@@H](CN(C)S(C)(=O)=O)Oc2ccc(NS(C)(=O)=O)cc2CC1=O | -4 | 19
Cc1noc(C)c1S(=O)(=O)N(C)C[C@H]1Oc2ccc(NC(=O)Nc3ccc4c(c3)OCO4)cc2CC(=O)N([C@H](C)CO)C[C@H]1C | 4 | 5
